High-throughput results as filed in PubChem BioAssay.
Menin-MLL FL inh: menin-MLL binding inhibition, fluorescein peptide; FP activity change, % at 61.4 µM; Fluorescence polarization, fluorescein-MLL peptide displacement from menin; AID 1766; 290,000 tested, under 10 active; inconclusive = falling polarisation curve, or a change in total fluorescence; inactive = total fluorescence flat and polarisation flat or rising; no compound was filed as active; the % refers to the polarisation; negative = inhibition;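 further: % of control where 0% means no effect; inhibitors lower the polarisation; unlabelled MLL peptide was the positive control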
gsp antagonist: antagonists of gsp mutant (McCune-Albright syndrome) | gsp-mutant cells, cAMP HTRF, 30 min; control for the full effect not named in the record | Potency, µM (titrated, usually from 76.9 µM), for the others: at the highest dose activity change, negative = inhibition, actives largely listed as inhibitors | 340,000 compounds, 0.4% hits | AID 624288; active = falling curve of any shape with a large fitted effect; inconclusive = falling curve, mostly with a smaller effect; inactive = flat or rising curve; cell line not stated here;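 further: intracellular cAMP measured with PDE inhibitor Ro 20-1724 present during compound exposure; potency means the concentration at half of the fitted maximal effect; on the % scale 0 is the no-effect control and ±100 the full control effect; nearly all actives have a fitted effect of over 65% in size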
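HTRF cAMP measurement after 30 min RT detection following 30 min, 37C compound treatment alongside […] (added as 300 uM solution) in G418-selected cells seeded at 2000/well and grown 16–24 h.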
TRPV1 potentiator: human TRPV1 potentiation; TRPV1-expressing cells, Fluo-8 calcium influx, capsaicin EC20 potentiation; host cell line not named in the record; control for the full effect not named in the record; 320,000 compounds, 0.02% hits; Q8NER1; AID 540277; potentiation, % at 8.33 µM; active means potentiation above 80%; inconclusive means 30% to 80%; inactive means below 30%; further: 0% is about no effect
Target sequence (Q8NER1 whole entry, looked up): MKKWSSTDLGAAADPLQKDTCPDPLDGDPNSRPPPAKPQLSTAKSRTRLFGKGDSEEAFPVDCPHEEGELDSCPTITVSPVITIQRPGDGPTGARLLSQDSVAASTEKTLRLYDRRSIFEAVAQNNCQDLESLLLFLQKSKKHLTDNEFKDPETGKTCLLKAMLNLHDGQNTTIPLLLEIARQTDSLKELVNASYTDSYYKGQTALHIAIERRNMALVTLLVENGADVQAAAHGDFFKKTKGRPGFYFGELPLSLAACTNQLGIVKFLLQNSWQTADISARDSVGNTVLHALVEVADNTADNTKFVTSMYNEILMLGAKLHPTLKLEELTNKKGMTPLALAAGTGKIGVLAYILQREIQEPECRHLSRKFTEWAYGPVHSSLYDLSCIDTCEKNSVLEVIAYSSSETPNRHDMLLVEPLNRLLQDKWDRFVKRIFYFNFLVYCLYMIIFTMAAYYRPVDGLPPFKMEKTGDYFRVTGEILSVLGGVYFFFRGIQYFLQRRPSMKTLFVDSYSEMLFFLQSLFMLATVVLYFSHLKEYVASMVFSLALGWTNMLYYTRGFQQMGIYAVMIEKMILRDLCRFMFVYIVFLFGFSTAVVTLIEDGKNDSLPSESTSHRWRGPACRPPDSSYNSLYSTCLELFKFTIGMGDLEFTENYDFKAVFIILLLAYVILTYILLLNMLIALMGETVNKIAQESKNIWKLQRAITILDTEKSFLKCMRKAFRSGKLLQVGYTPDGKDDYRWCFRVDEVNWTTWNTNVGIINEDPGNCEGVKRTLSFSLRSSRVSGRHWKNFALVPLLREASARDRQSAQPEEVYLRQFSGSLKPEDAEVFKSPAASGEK
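TRPV1-expressing cells were cultured overnight at 35.5C and loaded with Fluo-8 calcium dye for 40 to 90 min at room temperature. After a 10 s baseline, compound was added and calcium influx was read kinetically for 3 min (ex 480/em 520 nm).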
Sfp PPTase inh: inhibitors of Bacillus subtilis Sfp phosphopantetheinyl transferase. Biochemical Sfp PPTase activity, qHTS. Potency, µM, without a hit: max response, negative = inhibition, actives largely listed as inhibitors. 310,000 compounds, 3.5% hits. AID 1490; active means well fitted inhibition curve with a large enough effect; inconclusive means small, poorly fitted or top-dose-only effect, or another doubt; inactive means no such curve, though single readings can be large or run the other way;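 further: the enzyme is Sfp with the accession as filed and its product quenches rhodamine fluorescence; potency means the concentration at half of the fitted maximal effect; 0% = enzyme reaction without inhibitor and -100% = no enzyme wells; top concentration of the series not given in the record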
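Step 1, compound plus 15 nM Sfp-PPTase, 15 min, room temperature. Step 2, add rhodamine-CoA (5 uM) and BHQ-2-YbbR (12.5 uM). Step 3, read 525/598 nm fluorescence at 0 and 30 min.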
TRPML1 inh: human mucolipin-1 channel inhibition; AID 624415; activity change, negative = inhibition, % (test concentration not listed); TRPML1-inducible cells, Ca2+ dye fluorescence, FDSS; stronger effect = lower value; inhibition of EC80 agonist-evoked calcium signal; 390,000 compounds, 0.02% hits; in the data active means activity change below about -50%; inconclusive means about -30% to -50%; inactive means above about -30%;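 further: stimulus is agonist 54-4 at its EC80 concentration; on the % scale 0 is the no-effect control and ±100 the full control effect; compound concentration not given in the record; the text of the record puts the active cut at -80%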
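TRPML1-DL cells, Tet-induced overnight (~16 h, 37 °C) at 1,500 cells/well, were loaded with Ca8 no-wash dye plus quencher for 45-90 min at room temperature. Compounds were pinned during FDSS kinetic reading; agonist 54-4 at EC80 (4 uM final) then added.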
ClpP mod: qHTS Assay for Activators of ClpP | purified B. subtilis ClpP, FRET peptide cleavage, 20 min | Potency, µM (doses to about 57.5 µM), for inactives: at the highest dose activity change, negative = active | 340,000 compounds, 1.9% hits; active = well fitted falling curve with a large enough effect; inconclusive = small, poorly fitted or top-dose-only effect; inactive = no such curve, though single readings can be large or run the other way; further: potency means the concentration at half of the fitted maximal effect; the source files actives as falling curves though it sought activators and does not explain the sign; nearly all actives have a fitted effect of over 65% in size; many hits overshoot -100%
Target sequence (P80244 whole entry, looked up): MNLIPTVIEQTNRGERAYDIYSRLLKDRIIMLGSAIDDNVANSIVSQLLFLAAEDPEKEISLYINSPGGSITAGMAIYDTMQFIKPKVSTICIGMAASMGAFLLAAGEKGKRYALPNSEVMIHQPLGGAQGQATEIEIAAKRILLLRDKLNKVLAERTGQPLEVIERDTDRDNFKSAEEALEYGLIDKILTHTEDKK
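Purified B. subtilis ClpP, 10 microg/mL final in Tris/HCl pH8 with KCl, BSA, glycerol and Tween-20, cleaved an Abz/nitrotyrosine-quenched decapeptide. Fluorescence (ex 320, em 430) was read at 0 and 20 min at room temperature. Delta was normalized to 5.8 microM ADEP and DMSO/no-enzyme controls.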
gsp ag: gsp mutant agonism | gsp mutant cells, cAMP HTRF, 30 min; control for the full effect not named in the record | Potency, µM (titrated, usually from 76.9 µM), without a hit: at the highest dose activation (cAMP increase), most hits filed as activators | 340,000 compounds, 0.13% hits | AID 624287; active = well fitted activation curve with a large enough effect; inconclusive = small, poorly fitted or top-dose-only effect, or another doubt; inactive = no such curve, though single readings can be large or run the other way; cell line not stated here;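 further: phosphodiesterase inhibitor Ro 20-1724 added with compounds to block cAMP breakdown; potency means the concentration at half of the fitted maximal effect; nearly all actives have a fitted effect of over 60% in size; about a fifth of the inactives were tested at one dose only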
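Cells stably selected in G418 were plated at 2000/well, grown 16-24 hr, then given compounds in DMSO with the PDE inhibitor […] (300 uM solution added) for 30 min at 37C; cAMP was read by HTRF.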
* marks the source's active call; other numbers are inactive results; ? = inconclusive; nt = not tested or not shown; & = joins results of further samples; [ ] = another dose, or the depositor's remark.

mol,Menin-MLL FL inh,gsp antagonist,TRPV1 potentiator,Sfp PPTase inh,TRPML1 inh,ClpP mod,gsp ag
CCOP(=O)(NC(C)C)Oc1ccc(SC)c(C)c1 (stereo not given),nt,-3%,nt,nt,-3,-0.1%,?
CN(C)CC1CSCCC1(O)c1ccc(Cl)cc1 (stereo not given),0.2,2%,2,-2%,-7,2.7%,0%
Cc1cc(C)c(C(=O)N2CCC3(CC2)OCCO3)c(C)c1,-2.8,0%,-1,-2%,2,-0.4%,-3%[15.4 µM]
C/C(=N\N1CCCCC1c1cccnc1)c1c(O)n(C2CCCCC2)c(=S)[nH]c1=O (stereo not given),nt,26%,-13,-25%,6,-1.8%,3%
CCOc1cc(C=C2C(=O)NC(=O)NC2=O)ccc1OS(=O)(=O)c1ccccc1,-0.4,5%[15.4 µM],4,50µM*,26,-1.3%,14%
COc1ccccc1/C=C1/C(=N/O)C2CCN1CC2,-0.2,13%,-23,16%,-3,0.4%,?
CCN(CC)CCOC(=O)C(O)(c1ccccc1)c1ccccc1,-2.5&0.9&4.4,-2%,-12,-2%&20%&-15%,24,-0.7%,nt
Cc1cc(OCc2ccc([N+](=O)[O-])cc2)c2c3c(c(=O)oc2c1)CCCC3,1.3,7%,3,14%,45,-0.2%,-2%[15.4 µM]
CCCCn1c(O)c(C=NCc2ccc3c(c2)OCO3)c(=O)[nH]c1=O,4.2,10%,-6,50µM*,21,0.3%,6%[15.4 µM]
CC(C)CCNC(=O)CN1C(=O)CN=C(c2ccccc2)c2ccccc21,1.2,-6%,25,3%,-4,nt,-9%[15.4 µM]
O=C(CCC(=O)Nc1ccccc1Cl)N/N=C/c1ccccc1,1.0,3%,19,-2%,-2,1.1%,-2%
NC(Cc1ccc(N(CCCl)CCCl)cc1)C(=O)O (stereo not given),-3.4&14,nt,nt,-14%,nt,-4.0%,nt
O=P(Oc1ccccc1)(Oc1ccccc1)N1CCOCC1,nt,-6%,nt,nt,1,1.5%,-3%[15.4 µM]
COc1ccc(N2CC(C(=O)NCc3ccco3)CC2=O)cc1 (stereo not given),0.0,5%,2,?,8,nt,-14%
CCOC(=O)c1cccc([P+](=O)O)c1,0.7,9%,-16,10%,-15,-1.3%,-38%[inhibitor]
COc1cc(CC2(CCc3ccncc3)C(=O)N(C)C(=O)N(C)C2=O)cc(OC)c1OC,-6.1,9%,-2,-2%,-16,nt,5%
Nc1ccc(CC2=NCCN2)cc1,nt,10%,nt,nt,6,nt,-11%
O=c1[nH]c(=O)n(C2CCCCC2)c(O)c1C=NCCCn1ccnc1,18,0%,?,-10%,-11,-2.4%,10%
COc1ccc2c(C)c(CC(=O)N3C[C@H]4C[C@@H](C3)c3cccc(=O)n3C4)c(=O)oc2c1,0.2,-9%,-3,21%,nt,4.5%,nt
O=C(O)c1nn(Cc2ccc(Cl)cc2)c2ccccc12,nt,nt,nt,nt,1,-9.1%,6%
COC1CCCCC1NCCc1ccccc1 (stereo not given),4.0,6%,2,11%,-3,nt,-6%[15.4 µM]
CCOc1cccc(CNC2CN3CCC2CC3)c1 (stereo not given),-0.2,7%,3,-1%,-20,-1.8%,-37%[inhibitor]
Cc1cc(OC(C)C(=O)NCC2CCC(C(=O)O)CC2)c2c3c(c(=O)oc2c1)CCC3 (stereo not given),9.3,-5%,-18,9%,2,4.0%,-25%
CCC(=O)c1cn(Cc2ccc(C#N)cc2)c2ccccc12,0.2,-19%,2,2%,3,-1.6%,-8%
Oc1cc2c(cc1CN1CCN(c3ccccc3F)CC1)OCO2,0.0,1%,0,5%,25,nt,22%
CC12CCC3C(CCCC4CC(=O)CCC43C)C1CCC2O (stereo not given),nt,11%,nt,nt,37,2.0%,0%
CCCn1c(C(=O)c2ccccc2OC)nc2ccccc21,0.5,2%,-16,4%,8,1.3%,?
COc1cc2c(C(=O)N3CCN(C)CC3)c(C)n(C)c2cc1Br,-28,2%,-1,9%,-12,-7.3%,-2%
Cn1cc(C(=O)NCc2ccccc2)c2ccccc21,0.7,-12%,-6,15%,1,-3.1%,-63%[inhibitor]
O=c1[nH]c(=O)n(Cc2ccco2)c(O)c1C=NCCCn1ccnc1,6.8,-5%,24,16%,-6,-0.6%,-12%
CC1CCCCN1Cc1cccnc1 (stereo not given),-1.6,11%,2,-23%,-7,nt,0%
O=S(=O)(c1ccc(Cl)cc1)N1CCC(n2cnc3cc(C(F)(F)F)ccc32)CC1,nt,?,nt,nt,-3,-12%,-12%
C[C@@H]1CN([C@@H](C)CO)C(=O)CCCn2nncc2CO[C@H]1CN(C)C(=O)Oc1ccc2ccccc2c1,nt,nt,nt,nt,-2,-1.1%,32%
COC(=O)C1=C(c2ccc3ccccc3c2)C[C@@H]2CC[C@H]1N2C(=O)N1CCCCC1,nt,-22%,-5,nt,-17,-0.3%,-70%[inhibitor]
COC(=O)C1=C(c2ccc(F)cc2OCc2ccccc2)C[C@@H]2CC[C@H]1N2C(=O)NCc1cccc(F)c1,nt,-20%,1,nt,49,-1.6%,29%
COc1ccccc1CCNCc1cc2c(cc1[N+](=O)[O-])OCO2,-1.3,0%,-7,-16%,-9,-8.3%,6%
CC(CO)(CO)N=Cc1c(O)n(-c2cccc3ccccc23)c(=O)[nH]c1=O,9.1,12%,1,3%,-6,3.6%,0%
COC(=O)C1=C(c2ccc(OC)c(OC)c2)C[C@@H]2CC[C@H]1N2C(=O)NCc1cccc2ccccc12,nt,-6%,3,nt,-14,0.1%,nt
CCc1ccc2c(CN3CC=C(c4ccccc4)CC3)cc(=O)oc2c1,7.6,1%,10,0%,18,-7.5%,23%
O=S1(=O)N(CCN2CC=C(c3c[nH]c4cc(F)ccc34)CC2)c2cccc3c2N1CCC3,7.0,-15%,-2,nt,-4,-18%,nt
Cc1ccc(S(=O)(=O)c2nc(-c3ccccc3Cl)oc2N(C)C2CCN(C)CC2)cc1,nt,-23%,nt,nt,46,-7.6%,-3%
Cn1ccnc1P(=S)(c1nccn1C)N1CCOCC1,3.9,-2%,-11,?,-7,1.3%,2%
CCCNC(=O)N1[C@H]2CC[C@@H]1C(C(=O)OC)=C(c1ccc(F)cc1OCc1ccccc1)C2,nt,0%,-14,nt,38,-1.6%,-43%[inhibitor]
CCC(=NC1CC1)c1c(O)n(-c2ccc(OC)cc2)c(=O)[nH]c1=O,3.4,-2%,-12,14%,10,-1.6%,1%
CN1CCN(c2nc3ccccc3o2)CC1,2.1,10%,4,-4%,5,-0.2%,-20%
Cc1ccc(OCCSC2=NN2c2cc(C)nc(N)n2)cc1,-0.9,9%,-3,13%,-9,1.7%,2%
Cc1ccsc1C(=O)C1CCCN(Cc2cccn2-c2ccccn2)C1 (stereo not given),2.9,-2%,1,25%,33,0.6%,-12%
CCOP(=O)(OCC)C(NC(=O)Nc1ccc(Cl)c(Cl)c1)c1ccccc1 (stereo not given),4.4,?,-8,2%,22,3.4%,-55%[inhibitor]
COc1ccc(C2NCc3ccc4c(c3-n3cccc32)OCO4)cc1OC (stereo not given),0.8,11%,-7,11%,-5,-1.7%,-8%
Cc1ccc(C(=O)Nc2ccncc2)cc1S(=O)(=O)N1CCCCC1,nt,nt,nt,nt,7,-1.2%,-29%

The listing continues.
mol,Menin-MLL FL inh,gsp antagonist,TRPV1 potentiator,Sfp PPTase inh,TRPML1 inh,ClpP mod,gsp ag
CC(=NCCc1ccccc1)c1c(O)n(C)c(=O)n(C)c1=O,0.2,-5%,-6,15%,-16,nt,8%[15.4 µM]
CN1C(=O)C(=Cc2ccccc2OCc2ccccc2Cl)C(=O)N(C)C1=O,5.0,-3%,5,50µM*,-3,nt,8%[15.4 µM]
CN1C(=O)C(=Cc2cn(CC(=O)N3CCCC3)c3ccccc23)C(=O)N(C)C1=O,3.3,-7%,-3,7%,2,nt,-29%
CC1CCC(C(C)C)C(OP(N)(=O)c2ccccc2)C1 (stereo not given),2.5,-1%,2,-6%,4,2.0%,16%
c1ccc(CNCCc2c[nH]c3ccccc23)cc1,-0.3,5%,-9,-3%,-14,-1.3%,-45%
COc1ccc(CN2CCN(C(=O)Cc3ccccc3)CC2)c(OC)c1,-5.5,7%,?,-14%,-16,0.6%,-26%
CCCC(C)C1(CC)C(=O)NC(=Nc2ccc(F)cc2)NC1=O (stereo not given),0.4,-7%,16,2%,47,0.8%,1%
Cc1ccc2nc3c(cc2c1)CC1(C(=O)N(C)C(=O)N(C)C1=O)C1COCCN31 (stereo not given),0.1,-22%,-7,12%,-18,-0.4%,-11%
O=c1c2ccccc2nc(-c2ccco2)n1-c1cccnc1,0.0,0%,-15,-11%,58,0.9%,-2%
Nc1ncnc2c1nc(Br)n2C1CC(O)C(CO)O1 (stereo not given),-1.8,nt,nt,?,nt,0.0%,nt
COc1ccc2sc(-c3ccccc3OC)c(-c3ccc(OCCN4CCOCC4)cc3)c2c1,nt,3%,nt,nt,-4,28µM*,nt
COc1ccc(N=Cc2c(O)n(CC3CCCO3)c(=O)[nH]c2=O)cc1 (stereo not given),7.4,2%,0,5%,3,nt,-1%
CCOC(=O)c1cc2c(cn1)[C@H](CCO)NC2,nt,11%,nt,nt,17,-0.3%,nt
Cc1cc(SCC(=O)N/N=C/c2ccco2)nc2ccccc12,1.4,1%,8,5%,17,nt,?
CCCCCCn1c(O)c(C=NCCCn2ccnc2)c(=O)[nH]c1=O,?,-3%,17,19%,-9,-2.3%,-6%
Nc1cccc(SC2CC(=O)N(c3ccc(Cl)cc3C(=O)c3ccccc3)C2=O)c1 (stereo not given),nt,nt,nt,nt,-6,-2.4%,-7%
CC(C)c1ccc(C(c2c(O)c3ccccc3oc2=O)c2c(O)c3ccccc3oc2=O)cc1,nt,nt,nt,nt,7,-7.2%,-5%
O=c1c2ccccc2nc(-c2ccccc2)n1-c1ccncc1,0.3,-2%,6,2%,-5,-2.8%,?
CC1CC2CC(=O)CCC2(C)C2CCC3(C)C(O)CCC3C12 (stereo not given),nt,nt,nt,nt,-11,0.3%,-31%[inhibitor]
CC(=O)Cc1c[nH]c2ccccc12,4.0,nt,10,12%,nt,0.3%,nt
Cc1ccccc1-n1c(CNc2ccccc2)nc2ccccc2c1=O,nt,8%,nt,nt,-15,-4.2%,6%

This is a subset, so the mix of outcomes need not match the whole.
